RN4220 kill: kills Staphylococcus aureus RN4220; S. aureus RN4220 growth, OD600, 16 h; inhibition, % (concentration not given with the values); 330,000 tested, 0.33% active; AID 1259311;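 active = z-score of -3 or lower and OD600 up to 0.18 on both plates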;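 also: plate controls were untreated cells for no effect and reference antibiotic for full effect; stock transfer was 100 nL into about 80 µL; one replicate is shown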
Mtb hypoxia inh: inhibitors of hypoxia-regulated fluorescent reporter in Mycobacterium tuberculosis | M. tuberculosis hypoxia-regulated fluorescent reporter, fluorescence | fluorescence inhibition, % (concentration not given with the values) | 300,000 tested, 0.1% active | AID 1159583;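 active = 35 to 45% if threefold the growth effect, above 45% if 1.5-fold the growth effect; inactive = the rest, general growth blockers included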;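 also: wells of about 50 µL received 100 nL stock; 0% = vehicle wells and 100% = reference inhibitor wells; whole bacteria with a GFP reporter of the hypoxia response; strong numbers were not always called active; many hits fall short of the cut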
PrP UTR inh: suppresses PrP 5' UTR mRNA reporter expression | cell-based PrP 5' UTR mRNA reporter, plate reader | inhibition, % (no concentration beside the values) | AID 488862 | 340,000 tested, 0.35% active;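 active = every replicate at 50% or more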;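 also: 0 = median of the neutral control wells; tested in H4 reporter cells; numbers are from one replicate; inactives centre near -14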
Autofluor counter: compound fluorescence in toxin protease inhibitor counterscreen; compound autofluorescence counterscreen, microsphere flow cytometry; stronger effect = higher value; fluorescence intensity (concentration not given with the values); 360,000 tested, 3.1% active;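 active = at least 3 SD above the mean of all compounds, about 16000 in these data; inconclusive = too few beads counted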;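 also: 100 nL of 1 mM stock went into each well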
BJeLR viability: BJeLR cell viability loss | BJeLR (HRASV12) viability, CellTiter-Glo ATP luminescence, 48 h; reference of the scale not given here | inhibition, % (concentration not given with the values) | 300,000 tested, 0.17% active | AID 1554;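 active = replicate mean above 50%; inconclusive = above 50% but judged a plate artefact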;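 also: 50 nL library stock added to about 25 µL; numbers are from one replicate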
ugtP null kill: compounds lethal to S. aureus RN4220 ugtP deletion mutant; OD600 growth, 16 h; some inactives read as strong as hits; growth inhibition, % (no concentration beside the values); 330,000 tested, 0.54% active; AID 1259309;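 active = z-score under -3 and OD600 up to 0.15 on both plates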;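 also: plate controls were untreated wells for no effect and antibiotic for full effect; wells of about 80 µL received 100 nL stock; the first replicate is given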
Mtb hypoxia inh growth: further read-out of Mtb hypoxia inh, marked with its call; growth inhibition, %; measured here: M. tuberculosis growth (absorbance);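 0% = vehicle and 100% = reference antibiotic; read after six days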
An asterisk follows results filed as active; ? = inconclusive; nt = no result given.

Start of the listing, in advance:
SMILES	RN4220 kill	Mtb hypoxia inh	Mtb hypoxia inh growth	PrP UTR inh	Autofluor counter	BJeLR viability	ugtP null kill
Cc1ccc(OCC(=O)NNc2c3ccccc3nc3ccccc23)cc1	4.5	11	9	4	2128	20	-23
O=C(C1CC1)n1cc(C(=S)N2CCOCC2)c2ccccc21	5.8	7	7	-7	3291	10	-2
O=S(=O)(Nc1ncnc2sc3c(c12)CCC3)c1ccc(Cl)s1	31	1	-2	-1	3372	3	-2
O=C(NCc1ccccc1)c1onc(CSc2nc3ccccc3[nH]2)c1C(=O)NCc1ccccc1	-11	19	2	-4	2881	3	8
CCCCCCCC(=O)Nc1cc(C(=O)NCCC)ccc1N1CCC2(CC1)CC(c1cccc(Br)c1)=NO2	2.5	2	3	3	4289	8	7
Cc1csc(=O)n1CCC(=O)OCC(=O)Nc1ccc(S(N)(=O)=O)cc1	4.1	6	10	nt	5109	nt	3
COC(=O)Nc1nnc(Cc2ccccc2)s1	6.9	-2	-4	-20	7716	3	11
CCc1nc2ccccc2n1CC(O)COCC1CC=CCC1 (stereo unspecified)	nt	nt	nt	-28	4430	3	nt
CCOCCn1ccc2c(OCC(=O)Nc3ccc(OC)c(OC)c3)cccc2c1=O	0.2	0	0	-12	4826	-3	0
CCc1ccc(N2CC(C(=O)N/N=C/c3ccccc3OC)CC2=O)cc1 (stereo unspecified)	nt	nt	nt	-18	3844	2	nt
Cc1cc(C)c(C#N)c(SCc2ccc3c(c2)OCO3)n1	-2.0	nt	nt	-16	4579	0	1
CCCCNc1cc(Cl)nc(N)n1	3.7	2	4	-7	5155	-2	7

All compounds of this part, repeating the preview:
SMILES	RN4220 kill	Mtb hypoxia inh	Mtb hypoxia inh growth	PrP UTR inh	Autofluor counter	BJeLR viability	ugtP null kill
Cc1ccc(OCC(=O)NNc2c3ccccc3nc3ccccc23)cc1	4.5	11	9	4	2128	20	-23
O=C(C1CC1)n1cc(C(=S)N2CCOCC2)c2ccccc21	5.8	7	7	-7	3291	10	-2
O=S(=O)(Nc1ncnc2sc3c(c12)CCC3)c1ccc(Cl)s1	31	1	-2	-1	3372	3	-2
O=C(NCc1ccccc1)c1onc(CSc2nc3ccccc3[nH]2)c1C(=O)NCc1ccccc1	-11	19	2	-4	2881	3	8
CCCCCCCC(=O)Nc1cc(C(=O)NCCC)ccc1N1CCC2(CC1)CC(c1cccc(Br)c1)=NO2	2.5	2	3	3	4289	8	7
Cc1csc(=O)n1CCC(=O)OCC(=O)Nc1ccc(S(N)(=O)=O)cc1	4.1	6	10	nt	5109	nt	3
COC(=O)Nc1nnc(Cc2ccccc2)s1	6.9	-2	-4	-20	7716	3	11
CCc1nc2ccccc2n1CC(O)COCC1CC=CCC1 (stereo unspecified)	nt	nt	nt	-28	4430	3	nt
CCOCCn1ccc2c(OCC(=O)Nc3ccc(OC)c(OC)c3)cccc2c1=O	0.2	0	0	-12	4826	-3	0
CCc1ccc(N2CC(C(=O)N/N=C/c3ccccc3OC)CC2=O)cc1 (stereo unspecified)	nt	nt	nt	-18	3844	2	nt
Cc1cc(C)c(C#N)c(SCc2ccc3c(c2)OCO3)n1	-2.0	nt	nt	-16	4579	0	1
CCCCNc1cc(Cl)nc(N)n1	3.7	2	4	-7	5155	-2	7
COC(=O)c1ccn(CSc2c(F)c(F)cc(F)c2F)n1	5.0	3	3	3	4945	nt	4
CN(CC(=O)Nc1ccccc1Br)C(=O)CCc1ccccc1	3.1	16	10	-12	3535	-14	7
Fc1ccc(-n2c(-c3ccco3)nc3nc4ccccc4nc32)cc1	-15	9	9	-8	3941	3	0
CCCCCCOc1ccc(N2C(=O)CC(NCCc3ccc(S(N)(=O)=O)cc3)C2=O)cc1 (stereo unspecified)	9.7	7	8	-21	16058	-4	-5
Cc1cc(=O)oc2cc(OC(=O)CCCCCN3C(=O)c4ccccc4C3=O)ccc12	nt	nt	nt	-18	2165	-14	nt
Cc1ccc(-n2nnc3c(SCC(=O)NCc4ccco4)ncnc32)cc1	-0.3	2	3	-16	2860	5	15
O=C(C1CC(c2ccc(F)cc2)=NO1)N1CCN(c2ccccc2)CC1 (stereo unspecified)	4.6	4	-8	-21	4612	3	8
CN(Cc1ccc(Cl)cc1)C(=O)c1cc(S(=O)(=O)N2CCOCC2)ccc1N1CCCC1	1.7	2	3	-8	4976	-11	5
C=CC(=O)Nc1sc2c(c1C(N)=O)CCCC2	1.2	5	4	-6	3449	15	-1
O=C(NCc1nnc(SCC(=O)N2CCN(c3ccccc3)CC2)o1)c1c(F)cccc1Cl	-5.2	5	6	-11	5713	4	-6
O=C1C(Cc2c[nH]c3ccccc23)NC(=S)N1C1CCCCC1 (stereo unspecified)	9.5	1	5	-23	3443	nt	0
CCCSc1nc(C)c(C(C)=O)cc1C#N	8.6	nt	nt	-43	2073	-7	10
CC1CCN(Cc2nnnn2CCCC(=O)N(C)C(C)c2ccccn2)CC1 (stereo unspecified)	4.6	7	12	-14	4430	0	11
CCCOc1ccc(C(O)(CCC)CCN2CCCCC2)cc1 (stereo unspecified)	-16	nt	nt	9	2580	-5	-2
CN(N=Cc1cccnc1)C1=NS(=O)(=O)c2ccccc21	4.7	8	-1	nt	nt	nt	5
COc1ccc(-c2[nH]ncc2CNCCn2cccn2)c(F)c1	nt	nt	nt	-11	5324	10	nt
Cc1cccn2c(=O)c3cc(C(=O)NCc4ccc(F)cc4)c(=N)n(CCCN4CCOCC4)c3nc12	3.9	14	8	1	4975	nt	2
CCOC(=O)c1ccccc1NC(=O)Cc1c(C(=O)O)n(C)c2ccccc12	27	13	7	-33	3604	-6	7
CN1C(=CC=NNC(=O)c2ccc(O)cc2)C(C)(C)c2ccccc21	0.4	-8	-2	nt	nt	nt	13
CCOc1cc(C)c(Cl)cc1S(=O)(=O)N(C)C	2.5	nt	nt	-6	2060	9	4
Cc1ccc(C)c(OCCC(=O)Nc2cccc(S(=O)(=O)N3CCCCC3)c2)c1	-4.5	10	-2	-76	3832	nt	-14
CC(C)(C)c1cc(C(=O)CCN2CCOCC2)cc(C(C)(C)C)c1O	3.7	11	4	-5	3215	-6	13
CCOP(=O)(OCC)c1nc(-c2ccc(F)cc2)oc1NCc1ccccc1	3.5	-9	-2	-14	3374	0	5
COc1cc(CN2CCN(c3ccccc3F)CC2)c([N+](=O)[O-])cc1OC	nt	nt	nt	-24	2197	1	nt
CNc1nnc(-c2cc3cc(Cl)ccc3oc2=O)s1	0.6	nt	nt	-35	2815	-11	-4
Cc1cc(C(=O)OCC(=O)NC2CC2)c2ccccc2n1	3.1	11	0	3	3202	nt	2
Cc1ccc(OCCn2c(NC(=O)c3ccco3)nc3ccccc32)cc1	3.5	3	6	-39	2471	-3	-18
COC(=O)c1ccc(C(C(=O)NC2CCCCC2)N(C(=O)Cc2cccs2)C2CC2)cc1 (stereo unspecified)	1.4	14	0	-18	6029	9	8
Cc1ccc(C)c(NC(=O)CN(C)C(=O)c2cc(S(=O)(=O)N3CCOCC3)ccc2N2CCCC2)c1	0.8	2	9	-6	5859	-6	8
CCc1ccc2c(c1)C(=O)C[C@]1(CCC[C@H](C)C1)O2	nt	nt	nt	-6	2949	0	nt
CCCCN(CC)CCNC(=O)c1cc2c(=O)n(CC)c3ccccc3c2s1	2.1	1	-2	-14	3340	18	6
CCCNC(=O)c1cc(S(=O)(=O)N2CCCCC2)ccc1N1CCOCC1	1.9	-2	1	4	4636	-3	2
CCOC(=O)c1c(-c2ccco2)csc1N	3.8	5	5	-18	10231	1	-3
CCOC(=O)CS(=O)(=O)c1ccc(O)cc1	3.7	5	1	-12	3434	-6	4
Cc1ccc(-c2ccc(/C=N/O)o2)cc1[N+](=O)[O-]	nt	nt	nt	-38	4440	-6	nt
CCOc1ccc2nc(N3CCC(C(=O)N4CCN(c5ccccn5)CC4)CC3)sc2c1	-1.9	nt	nt	-28	5408	0	8
COc1cc(/C=N/N2CCN(c3ccccc3)CC2)ccc1OC(C)=O	nt	nt	nt	-12	4032	-11	nt
Cn1c(NN=Cc2cc3ccccc3nc2Cl)nc2ccccc21	5.1	10	-3	nt	nt	nt	4

Next part.
SMILES	RN4220 kill	Mtb hypoxia inh	Mtb hypoxia inh growth	PrP UTR inh	Autofluor counter	BJeLR viability	ugtP null kill
Cc1csc(NC(=O)CSc2nnc(-c3ccc(Cl)cc3)n2N)n1	0.0	0	12	15	11276	-8	0
C[N+](C)(C)CCOC(=O)CCC(=O)OCC[N+](C)(C)C	11	4	0	-15	5514	nt	4
CC=NNC(=O)CNC(=O)CNC(=O)c1ccccc1	2.3	1	6	nt	nt	nt	2
COc1cccc(C(=O)O[C@H]2[C@H](C)NS(=O)(=O)[C@H]3C[C@@H]4C=C[C@]23O4)c1	-0.1	6	-4	-28	4100	nt	7
CCCCCOc1ccc(C2NC(=O)NC2=O)cc1 (stereo unspecified)	2.7	1	4	-25	5277	11	9
CC(C(=O)Nc1cccc([N+](=O)[O-])c1)n1nnc2ccccc21 (stereo unspecified)	1.7	4	2	-31	?	-3	-2
COCCn1c(SCC(=O)N2CCN(c3ccccc3)CC2)nc2c(c1=O)SC(C)C2 (stereo unspecified)	-14	0	3	-16	6008	9	-5
CCCn1c(O)c2ccc(C(=O)N=NC(=O)c3cccnc3)cc2c1O	16	-1	1	-19	4091	-13	14
COC(=O)C(O)(c1ccc(NC(=S)NC(=O)c2ccc(Cl)cc2Cl)cc1)C(F)(F)F (stereo unspecified)	5.2	-4	-1	-12	2384	-4	86*
CC(C)(C)c1cccc(OCCCSc2ncccn2)c1	3.2	5	8	-30	9534	10	90
NS(=O)(=O)c1ccc(NC(CNS(=O)(=O)c2ccccc2)c2ccccc2)cc1 (stereo unspecified)	0.8	3	2	-18	4548	-4	6
COc1ccc(/C=C/C(=O)c2oc3ccc(F)cc3c2C)cc1	1.3	13	5	-22	9372	-13	13
O=C(CCCOc1ccc(Cl)cc1Cl)NNC(=O)C1CCC1	5.3	5	2	-5	3359	5	1
COc1cc2nc(-c3ccccc3)nc(N3CCCC3)c2cc1OC	-8.7	nt	nt	-14	nt	nt	11
Cc1ccc2nc(C(=O)O)c(C(=O)O)nc2c1	0.9	12	0	-17	6785	0	9
Cc1cccc(C(=O)NNC(=O)C(=O)NC(C)(C)C)c1	1.7	nt	nt	-17	4094	-10	6
O=C(O)c1c2c(nc3ccc(F)cc13)CCC2	3.7	3	2	13	20799*	4	7
CN(CCO)C1=NS(=O)(=O)c2cc([N+](=O)[O-])ccc21	0.8	6	8	-18	4955	1	17
Cn1c(CCCOc2ccc(Cl)cc2Cl)nnc1SCC(=O)Nc1ccc(F)c(Cl)c1	-1.5	11	7	-27	2182	3	-25
CC(C)(C)C1(c2ccccc2)NC(=O)N(CC(=O)N2CCOCC2)C1=O (stereo unspecified)	5.4	12	6	-10	19617*	5	-12
CCn1c(=O)c2sccc2n(CC(=O)NCCC2=CCCCC2)c1=O	-0.6	11	0	-23	3759	-5	10
Cc1ccccc1Cn1c(=N)n(CC(O)c2ccco2)c2ccccc21 (stereo unspecified)	-1.6	-8	5	-20	4120	12	-2
C#CCN(N(C)c1ncc(C(F)(F)F)cc1Cl)S(=O)(=O)c1ccc2ccccc2c1	9.0	nt	nt	-13	4728	2	26
COCCNS(=O)(=O)c1ccccc1	-0.3	-2	-3	-20	10336	7	-1
COc1ccccc1N(CC(=O)NC1CC2CCC1C2)S(=O)(=O)c1ccc(C)cc1 (stereo unspecified)	4.8	5	2	-6	4396	-1	3
O=S(=O)(NCCCSc1ccccc1)c1ccccc1F	3.1	7	-1	-23	3094	-3	17
COCCNC(=S)N1CCC(c2nc(-c3ccc(F)cc3)no2)CC1	8.6	14	3	-21	3356	1	3
Cc1nnc(NC(=O)CSc2nnc3ncccn23)s1	0.5	-5	-2	8	5091	-5	0
COc1cc(NC(=O)CCNS(=O)(=O)c2ccc3c(c2)CCC(=O)N3)cc(OC)c1	3.7	7	10	-6	2037	0	6

Rows were taken by chance; any-hit rate near 4%.
